# Screening results from PubChem BioAssay.
# Yeast UUG start = modulators of yeast start codon fidelity, primary screen, whole organism, S. cerevisiae, single point, plate reader; activity score, % at 18.7 µM; S. cerevisiae UUG-firefly luciferase reporter, luminescence/redox ratio; actives 0.13% (n = 350,000);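 active means replicate mean at a twofold rise or more, about +100% in these data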;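 further: firefly luciferase made from a UUG start codon reports start codon fidelity; reporter light over untreated wells divided by growth signal over untreated wells; some hits fall short of that in this replicate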
# * marks the source's active call; other numbers are inactive results. These rows are one share of the data; the hit share may differ from the screen's.
SMILES,Yeast UUG start
CCC(=O)N1[C@H](CO)[C@H](c2ccc(-c3cccnc3)cc2)[C@@H]1CN(C)C(C)=O,-5
O=C(c1ccccc1)N1C[C@H]2[C@@H](c3ccccc31)[C@@H](CO)N2Cc1ccccn1,-20
CO[C@H]1CN(C)C(=O)c2cc(NC(=O)C3CCC3)ccc2OC[C@H](C)N(Cc2nccs2)C[C@H]1C,-2
C[C@H]1CN([C@@H](C)CO)C(=O)c2cc(NC(=O)Nc3cccc4ccccc34)ccc2O[C@H]1CN(C)C(=O)Nc1ccc(C(F)(F)F)cc1,-17
COc1cccc(S(=O)(=O)N2CCCCN3[C@H](C2)[C@H](c2ccc(C#CCC(C)C)cc2)[C@@H]3CO)c1,-1
O=C(Nc1ccccc1)N1CCCCN2[C@@H](CO)[C@@H](c3ccc(C#CC4CC4)cc3)[C@@H]2C1,13
CN1c2ccc(-c3ccc(F)cc3)cc2[C@H]2[C@H](CCN2C(=O)Nc2ccc(F)cc2)[C@H]1CO,-14
O=C(Nc1cc(F)ccc1F)N1CCCCN2[C@@H](CO)[C@H](c3ccc(-c4ccncc4)cc3)[C@@H]2C1,-4
C[C@H](CO)N1C[C@H](C)[C@H](CN(C)Cc2ccc(Oc3ccccc3)cc2)Oc2c(NS(=O)(=O)c3cccs3)cccc2C1=O,7
C[C@H]1CN([C@@H](C)CO)C(=O)c2cc(NC(=O)C3CCCCC3)ccc2O[C@@H]1CN(C)Cc1ccc(Cl)c(Cl)c1,1
CO[C@H]1CN(C)C(=O)c2cc(NC(=O)NC3CCCCC3)ccc2OC[C@H](C)NC[C@H]1C,14
Cc1noc(C)c1S(=O)(=O)N(C)C[C@H]1Oc2ccc(NS(=O)(=O)c3cn(C)cn3)cc2C(=O)N([C@H](C)CO)C[C@H]1C,-2
C[C@H]1CN([C@@H](C)CO)C(=O)c2cccc(NC(=O)Nc3ccc(C(F)(F)F)cc3)c2O[C@@H]1CN(C)CC1CCCCC1,-4
O=C(Cc1cccnc1)N1[C@H](CO)[C@H](c2ccccc2)[C@H]1CNCC1CCC1,-1
C[C@@H](NC(=O)C[C@@H]1CC[C@H]2[C@@H](COC[C@@H](O)CN2C(=O)Nc2cccc(F)c2)O1)c1ccccc1,9
C[C@@H]1CN([C@H](C)CO)C(=O)c2cc(NC(=O)NC3CCCCC3)ccc2O[C@@H]1CN(C)CC1CCCCC1,2
C[C@H](CO)N1C[C@H](C)[C@H](CN(C)Cc2ccc(-c3ccccc3)cc2)Oc2ccc(N(C)C)cc2CC1=O,-2
CCC(=O)N1CC[C@@H]2[C@@H](CO)Nc3ccc(-c4ccc(C(=O)N(C)C)cc4)cc3[C@@H]21,7
COc1ccccc1-c1ccc([C@H]2[C@@H](CO)N3CCCCN(C(=O)NC4CCCC4)C[C@@H]23)cc1,4
CO[C@@H]1CN(C)C(=O)c2cc(NC(=O)c3cc(C)on3)ccc2OC[C@@H](C)N(C(=O)C2CC2)C[C@H]1C,6

# Molecules listed so far containing a CF3 group, in the order listed:
SMILES,Yeast UUG start
C[C@H]1CN([C@@H](C)CO)C(=O)c2cc(NC(=O)Nc3cccc4ccccc34)ccc2O[C@H]1CN(C)C(=O)Nc1ccc(C(F)(F)F)cc1,-17
C[C@H]1CN([C@@H](C)CO)C(=O)c2cccc(NC(=O)Nc3ccc(C(F)(F)F)cc3)c2O[C@@H]1CN(C)CC1CCCCC1,-4

# Next section:
SMILES,Yeast UUG start
COc1ccc(S(=O)(=O)Nc2cccc3c2O[C@H](CN(C)S(=O)(=O)c2cn(C)cn2)[C@@H](C)CN([C@@H](C)CO)C3=O)cc1,7
Cc1noc(C)c1NC(=O)Nc1cccc2c1O[C@@H](CN(C)Cc1ccc(-c3ccccc3)cc1)[C@@H](C)CN([C@@H](C)CO)C2=O,1
CNC[C@@H]1Oc2ccc(NC(=O)Cn3cnnn3)cc2C(=O)N([C@H](C)CO)C[C@@H]1C,-16
CN1C(=O)c2cc(NC(=O)c3ccc(Cl)cc3)ccc2OC[C@H]2O[C@H](CC(=O)NCc3cccc(F)c3)CC[C@H]21,-4
CN(C)C(=O)c1cccc(-c2ccc3c(c2)[C@H]2[C@H](CCN2C(=O)c2ccccc2)[C@@H](CO)N3C)c1,-21
COc1ccccc1CN1C[C@@H](C)[C@H](OC)CN(C)C(=O)c2ccc(NC(=O)Nc3ccccc3OC)cc2OC[C@H]1C,1
CN(C)C(=O)c1cccc(-c2ccc([C@@H]3[C@@H](CO)N4CCCCN(C(=O)C5CCCC5)C[C@@H]34)cc2)c1,-7
COc1ccc(CN(C)C[C@@H]2Oc3c(NC(=O)c4cnccn4)cccc3C(=O)N([C@@H](C)CO)C[C@H]2C)cc1,-7
CO[C@H]1CN(C)C(=O)c2ccc(NC(C)=O)cc2OC[C@@H](C)N(S(=O)(=O)c2cn(C)cn2)C[C@@H]1C,11
CN1CCN(C(=O)C[C@@H]2C[C@H]3c4cc(NS(=O)(=O)c5ccc(F)cc5)ccc4O[C@H]3[C@@H](CO)O2)CC1,1

# Part of the list above, tab-delimited:
Molecule	Yeast UUG start
CN1CCN(C(=O)C[C@@H]2C[C@H]3c4cc(NS(=O)(=O)c5ccc(F)cc5)ccc4O[C@H]3[C@@H](CO)O2)CC1	1
COc1ccc(S(=O)(=O)Nc2cccc3c2O[C@H](CN(C)S(=O)(=O)c2cn(C)cn2)[C@@H](C)CN([C@@H](C)CO)C3=O)cc1	7
CNC[C@@H]1Oc2ccc(NC(=O)Cn3cnnn3)cc2C(=O)N([C@H](C)CO)C[C@@H]1C	-16

# Following part
SMILES,Yeast UUG start
COc1ccc(-c2ccc3c(c2)[C@H]2[C@H](CCN2C(=O)CN2CCOCC2)[C@@H](CO)N3)cc1,1
O=C(Nc1cccc(F)c1)N1CCCCN2[C@H](CO)[C@@H](c3ccc(-c4ccccc4F)cc3)[C@H]2C1,4
C[C@@H]1CN([C@@H](C)CO)C(=O)c2cccc(NC(=O)Nc3ccc(C(F)(F)F)cc3)c2O[C@@H]1CN(C)S(=O)(=O)c1ccc(Cl)cc1,-16
CCC(=O)Nc1ccc2c(c1)C(=O)N(C)C[C@H](OC)[C@@H](C)CN(C(=O)COC)[C@@H](C)CO2,0
Cc1cccc(S(=O)(=O)N2CC[C@@H]3[C@@H](CO)Nc4ccc(-c5ccccc5F)cc4[C@@H]32)c1,-7
COc1ccccc1NC(=O)N1C[C@H]2[C@@H](c3ccccc31)[C@@H](CO)N2CC1CCCC1,-2
COc1cccc(-c2ccc3c(c2)[C@H]2[C@H](CCN2C(=O)C2CCOCC2)[C@H](CO)N3)c1,-16
O=C(C1CCCC1)N1C[C@H]2[C@@H](c3ccccc31)[C@H](CO)N2C(=O)c1cccnc1,15
CS(=O)(=O)N1CCCCN2[C@H](CO)[C@H](c3ccc(-c4cccc(C#N)c4)cc3)[C@H]2C1,-5
O=C(C[C@@H]1CC[C@@H]2[C@H](COC[C@H](O)CN2Cc2ccccc2)O1)NCc1ccccc1Cl,12

# Next part; it opens with the 5 that closed the last part.
SMILES,Yeast UUG start
COc1ccccc1NC(=O)N1C[C@H]2[C@@H](c3ccccc31)[C@@H](CO)N2CC1CCCC1,-2
COc1cccc(-c2ccc3c(c2)[C@H]2[C@H](CCN2C(=O)C2CCOCC2)[C@H](CO)N3)c1,-16
O=C(C1CCCC1)N1C[C@H]2[C@@H](c3ccccc31)[C@H](CO)N2C(=O)c1cccnc1,15
CS(=O)(=O)N1CCCCN2[C@H](CO)[C@H](c3ccc(-c4cccc(C#N)c4)cc3)[C@H]2C1,-5
O=C(C[C@@H]1CC[C@@H]2[C@H](COC[C@H](O)CN2Cc2ccccc2)O1)NCc1ccccc1Cl,12
CO[C@H]1CN(C)C(=O)c2ccc(NC(=O)C3CCCCC3)cc2OC[C@@H](C)NC[C@@H]1C,-14
CCN1[C@@H]2c3ccc(-c4cccc(C(=O)N(C)C)c4)c(=O)n3C[C@@H]2[C@@H](CO)[C@@H]1C(=O)OC,10
COc1ccc(NC(=O)N2CC[C@@H]3[C@H]2c2cc(-c4ccc(F)cc4)ccc2N(C)[C@H]3CO)cc1,-8
C/C=C/c1ccc([C@H]2[C@@H](CO)N(CC3CC3)[C@H]2CNS(C)(=O)=O)cc1,-12
CCC(=O)N(C)C[C@H]1[C@@H](c2ccc(C3=CCCC3)cc2)[C@@H](CO)N1C(=O)CC,26
COc1ccc(NC(=O)Nc2cccc3c2O[C@@H](CN(C)Cc2ccncc2)[C@@H](C)CN([C@@H](C)CO)C3=O)cc1,4
CN(C[C@@H]1[C@@H](c2ccccc2)[C@H](CO)N1C(=O)c1ccccc1)C(=O)C1CC1,17
C[C@@H]1CN([C@H](C)CO)C(=O)c2cccc(NC(=O)Nc3ccc(C(F)(F)F)cc3)c2O[C@H]1CN(C)Cc1ccc2c(c1)OCO2,16
Cc1cccc(-c2ccc([C@@H]3[C@@H](CO)N4CCCCN(C(=O)c5ccncc5)C[C@@H]34)cc2)c1,-7
Cc1ccccc1S(=O)(=O)N1CCCCN2[C@H](C1)[C@H](c1ccc(-c3cccnc3)cc1)[C@@H]2CO,-3
CCS(=O)(=O)N1CCCCN2[C@@H](CO)[C@@H](c3ccc(C#Cc4ccccc4OC)cc3)[C@@H]2C1,14
C[C@@H]1CN([C@@H](C)CO)C(=O)c2cc(NS(=O)(=O)c3cccs3)ccc2O[C@H]1CN(C)S(C)(=O)=O,-10
CCNC(=O)[C@H]1[C@H](CO)[C@H]2Cn3c(ccc(-c4cncnc4)c3=O)[C@@H]1N2C(=O)Nc1ccccc1,-4
Cc1ccc(S(=O)(=O)Nc2ccc3c(c2)C(=O)N([C@H](C)CO)C[C@H](C)[C@H](CN(C)CC2CC2)O3)cc1,14
CCCNC(=O)N1C[C@@H](C)[C@H](OC)CN(C)C(=O)c2cc(NS(=O)(=O)CC(F)(F)F)ccc2OC[C@@H]1C,-7
CN1c2ccc(-c3ccccc3)cc2[C@@H]2[C@@H](CCN2C(=O)CN2CCOCC2)[C@H]1CO,-3
C[C@@H]1CN([C@@H](C)CO)C(=O)c2cccc(N(C)C)c2O[C@@H]1CN(C)C(=O)Nc1ccc(F)cc1,11
CO[C@@H]1CN(C)C(=O)c2ccc(NC(=O)c3ccccc3)cc2OC[C@@H](C)N(C(C)=O)C[C@H]1C,-1
N#Cc1ccc(-c2ccc3c(c2)[C@@H]2[C@@H](CCN2C(=O)c2ccc(F)cc2)[C@@H](CO)N3)cc1,4
COc1ccc(S(=O)(=O)N(C)C[C@H]2Oc3c(NC(=O)C4CCCCC4)cccc3C(=O)N([C@H](C)CO)C[C@H]2C)cc1,16
COc1cccc(C(=O)N2C[C@H]3[C@@H](c4ccccc42)[C@@H](CO)N3Cc2cccnc2)c1,-4
O=C(Nc1ccc(F)cc1)N1CCCCN2[C@H](C1)[C@@H](c1ccc(-c3ccccc3F)cc1)[C@@H]2CO,-2
CC(C)NC(=O)N(C)C[C@H]1Oc2ccc(NS(C)(=O)=O)cc2CC(=O)N([C@@H](C)CO)C[C@@H]1C,-18
COc1ccc(NC(=O)N(C)C[C@H]2Oc3ccc(NC(=O)CCN4CCOCC4)cc3CC(=O)N([C@@H](C)CO)C[C@H]2C)cc1,4
O=C(c1ccncc1)N1CCCCN2[C@H](CO)[C@@H](c3ccc(-c4ccccc4)cc3)[C@H]2C1,-13
C[C@H]1CN([C@@H](C)CO)C(=O)c2cccc(NC(=O)c3ccc(-c4nccs4)cc3)c2O[C@H]1CN(C)C,-3
CN(C)C(=O)[C@H]1[C@H](CO)[C@H]2Cn3c(ccc(C4=CCCC4)c3=O)[C@@H]1N2C,-8
CN1CCCCN2[C@H](CO)[C@H](c3ccc(C#Cc4ccccc4F)cc3)[C@@H]2C1,23
Cc1ccc(S(=O)(=O)Nc2ccc3c(c2)C(=O)N([C@@H](C)CO)C[C@H](C)[C@H](CN(C)C(=O)Nc2ccccc2)O3)cc1,7
Cc1cccc(S(=O)(=O)N2C[C@H](O)COC[C@H]3O[C@@H](CC(=O)N4CCN(C)CC4)CC[C@@H]32)c1,-3
CCCC(=O)Nc1ccc2c(c1)C(=O)N(C)C[C@@H](OC)[C@H](C)CN(C(=O)c1cnccn1)[C@@H](C)CO2,2
CO[C@@H]1CN(C)C(=O)c2ccc(NS(=O)(=O)c3cccc(F)c3)cc2OC[C@H](C)N(Cc2cc(F)ccc2F)C[C@H]1C,-3
Cc1ccc(S(=O)(=O)N(C)C[C@@H]2Oc3ccc(NC(=O)Nc4ccc(C(F)(F)F)cc4)cc3C(=O)N([C@H](C)CO)C[C@H]2C)cc1,-3
Cc1cccc(CN(C)C[C@@H]2Oc3ncc(C#Cc4ccccc4)cc3C(=O)N([C@H](C)CO)C[C@@H]2C)c1,10
CO[C@H]1CN(C)C(=O)c2cc(NS(=O)(=O)CC(F)(F)F)ccc2OC[C@H](C)N(Cc2ccccn2)C[C@@H]1C,-16
CCCNC(=O)N1C[C@@H]2[C@H](c3ccccc31)[C@@H](CO)N2C(=O)Nc1ccccc1,-1
CO[C@@H]1CN(C)C(=O)c2ccc(NC(=O)C3CC3)cc2OC[C@H](C)N(C(=O)c2cccnc2)C[C@H]1C,2
CNC(=O)C[C@@H]1CC[C@@H]2[C@H](COC[C@@H](O)CN2Cc2ccncc2)O1,2
C[C@H]1CN([C@@H](C)CO)C(=O)Cc2cc(NC(=O)Nc3cccc4ccccc34)ccc2O[C@H]1CN(C)Cc1ccc(C(=O)O)cc1,1
O=C(C[C@H]1CC[C@@H]2[C@H](COC[C@@H](O)CN2C(=O)Nc2ccccc2)O1)NCCCN1CCOCC1,-7
CCN(C[C@@H]1[C@@H](c2ccccc2)[C@@H](CO)N1C(=O)C1CC1)C(=O)NC1CCCC1,-13
CO[C@@H]1CN(C)C(=O)c2ccc(NC(=O)C3CC3)cc2OC[C@@H](C)N(CCC(F)(F)F)C[C@@H]1C,-12
N#Cc1cccc(-c2ccc([C@@H]3[C@H](CO)N4CCCCN(C(=O)Nc5ccc(F)cc5)C[C@@H]34)cc2)c1,4
Cc1ccc(S(=O)(=O)Nc2ccc3c(c2)C(=O)N([C@@H](C)CO)C[C@@H](C)[C@H](CN(C)C(=O)Nc2ccc(F)cc2)O3)cc1,-3
CCCC(=O)Nc1ccc2c(c1)OC[C@H](C)N(Cc1cccc(F)c1)C[C@@H](C)[C@@H](OC)CN(C)C2=O,4
COc1cccc(-c2ccc3c(c2)[C@@H]2[C@@H](CCN2S(=O)(=O)c2ccccc2OC)[C@H](CO)N3)c1,0
